# Source: PubChem BioAssay
# Mtb RmlCD inh: blocks M. tuberculosis RmlC and RmlD coupled enzymes; AID 1533; RmlC+RmlD coupled enzyme assay, percent inhibition; primary screen in compound mixtures; inhibition, % at 3.6 µM; P9WH09+P9WH11; hit rate 0.03% among 160,000; in the data active means inhibition mostly above about 34%, no sharp cut-off; only retested compounds are shown here; further: some results filed as inactive read as strong as hits
# Target sequence (P9WH09 whole entry, looked up): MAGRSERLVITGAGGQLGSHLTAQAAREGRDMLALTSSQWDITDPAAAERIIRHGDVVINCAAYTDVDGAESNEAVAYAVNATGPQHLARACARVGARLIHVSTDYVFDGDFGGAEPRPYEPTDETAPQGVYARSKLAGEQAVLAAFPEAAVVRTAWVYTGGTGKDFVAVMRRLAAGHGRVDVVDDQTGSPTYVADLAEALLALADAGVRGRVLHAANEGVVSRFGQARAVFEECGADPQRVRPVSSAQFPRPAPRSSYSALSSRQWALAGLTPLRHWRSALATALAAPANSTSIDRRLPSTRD
# Target sequence (P9WH11 whole entry, looked up): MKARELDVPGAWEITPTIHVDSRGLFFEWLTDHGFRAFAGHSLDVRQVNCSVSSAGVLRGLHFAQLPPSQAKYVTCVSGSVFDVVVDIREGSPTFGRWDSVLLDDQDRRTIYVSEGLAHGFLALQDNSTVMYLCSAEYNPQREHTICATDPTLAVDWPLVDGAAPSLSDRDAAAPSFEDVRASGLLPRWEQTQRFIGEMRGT
# Mtb RmlCD inh retest: also measured in Mtb RmlCD inh; calls as there; inhibition, %; measured here: mean retest inhibition;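 single compounds in two wells; values far above 100% likely come from compound fluorescence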
# An asterisk follows results filed as active.
SMILES,Mtb RmlCD inh,Mtb RmlCD inh retest
CNC(=O)c1cccc2cccc(Sc3ccccc3C(=O)O)c12,103,-3
CC(C)CC1(C)N=C(c2ccccc2)C(=S)N1 (stereo not drawn),85,-16
CCOC(=O)C(NC(=O)c1ccccc1Cl)(Nc1sc2c(c1C(N)=O)CCC2)C(F)(F)F (stereo not drawn),50,-9
Cc1cccc(CSCc2ccc(C(=O)NCC3CCCO3)o2)c1 (stereo not drawn),33,10
CCOC(=O)/C(=N\Nc1ccccc1Cl)N1CCN(C)CC1,74,9
Nc1c(C(=O)N/N=C/c2ccc([N+](=O)[O-])cc2)cnn1-c1ccccc1,37,-14
CCN(CC)S(=O)(=O)c1ccc(-c2csc(C)n2)s1,78,-10
O=C1CC(N2CCN(S(=O)(=O)c3ccccc3)CC2)C(=O)N1c1ccccc1 (stereo not drawn),59,13
CCOC(=O)N1CCN(C(=O)c2cnn3c(C)c(Cc4ccc(C)cc4)c(C)nc23)CC1,38,-2
Cc1[nH]c2ccccc2c1C(Nc1nccs1)c1ccncc1 (stereo not drawn),69,6
COc1cc(OC)c(NC(=O)/C=C/C(=O)O)cc1Cl,40,-9
COc1ccc(-c2cc(=O)[nH]c(=S)[nH]2)cc1,86,7
COc1ccc(C(=O)CSc2nnc(C(CO)NC(=O)c3ccc(OC)cc3)n2C)cc1 (stereo not drawn),35,-6
Cc1ccc(OCC(=O)N/N=C/c2ccncc2)cc1C,67,-4
COc1ccc(/C=N/NC(=O)Cn2nnc3ccccc32)cc1OC,34,-6
COc1ccc(N2CC(NC(=O)NCCC(C)C)CC2=O)cc1 (stereo not drawn),91,-2
CCOc1cccc(CNCc2ccc(C(=O)O)cc2)c1,32,-5
CSCCC(NC(=O)c1ccccc1)C(=O)Nc1ccc(NC(C)=O)cc1 (stereo not drawn),57,-9
O=C(NCCN1C(=O)S/C(=C\c2ccccc2F)C1=O)C1CCCN1C(=O)c1cccs1 (stereo not drawn),99,8
Cc1cnc(C(=O)OCC(=O)Nc2ccc(Cl)cc2)cn1,42,9
Cc1ccc(CN(Cc2ccco2)C(=S)NCC(=O)O)cc1,38,5
Cc1ccc(Cl)c(NC(=O)CN2CCNC(=O)C2)c1Cl,47,2
CN(C)S(=O)(=O)c1ccc(NC(=O)CSc2ncnc3ccccc23)cc1,56,-8
Cc1ccc2nc(-c3ccc4c(c3)OCCO4)cn2c1,83,5
COc1ccc2[nH]cc(CCN=C(N)N)c2c1,31,5
Fc1ccc(NC(=S)Nc2ccccc2OC(F)F)cc1Cl,79,-8
COc1ccc(-c2csc3ncnc(Oc4cccc5ccc(C)nc45)c23)cc1,33,10
COc1ccc2nc(SCc3ccccc3C)nc(C)c2c1,38,-10
Cc1cc(C)c2nc3nc(C)c(C)cc3c(N)c2c1,65,9
Cc1ccc2nc(/N=C(\N)NC(=O)NC3CCCCC3)nc(C)c2c1,51,-6
Cn1nnnc1N=N/C(=N/Nc1ccccc1)c1ccccc1,60,10
O=C(NCCc1ccc(Cl)cc1)c1ccc(CNc2c(N3CCOCC3)c(=O)c2=O)cc1,57,6
CC(C)c1ccc(N(C(=O)c2cc3ccccc3oc2=O)C2C=CS(=O)(=O)C2)cc1 (stereo not drawn),66,5
O=C(COc1ccc([N+](=O)[O-])cc1)Nc1nnc(-c2cccnc2)s1,43,-12
Cc1nc2c(C)cccc2c2c1COC2,37,-9
CNC(=S)N1N=C(c2ccc(C)cc2)CC1c1cc(OC)ccc1OC (stereo not drawn),94,-11
CC(=O)Nc1ccc2nc(NC(=O)COc3ccccc3Cl)sc2c1,43,10
COc1ccc(NS(=O)(=O)c2cccc(NC(=O)NCCCl)c2)cc1,64,-2
C1CCc2nc3c(nc2C1)CCCC3,70,-11
Cc1ccc2[nH]c(=O)c(CN(CCCO)C(C)c3nnnn3Cc3ccco3)cc2c1 (stereo not drawn),60,-6
CN(C)S(=O)(=O)c1cccc(NC(=O)CSc2nnnn2-c2ccccc2)c1,32,2
CCOC(=O)c1c(C)[nH]c(C)c1C(=O)COC(=O)/C=C/c1cccc(C(F)(F)F)c1,31,-12
Cc1cc(C)c2cc(C(=O)Nc3ccc4c(c3)OCO4)[nH]c2c1,56,16
O=C(O)c1ccc(/C=N/Nc2ccc(F)cc2F)cc1,60,11
Cc1ccc(-c2nc3ccccn3c2NCc2ccc3c(c2)OCO3)cc1,39,-10
O=C(N/N=C/c1ccc(N2CCOCC2)cc1)c1ccc(O)cc1,43,12
Cn1c(Cl)c(/C=N/OC(=O)C(C)(C)C)c2ccccc21,69,-12
O=C(Nc1nnc(COc2ccc(Cl)cc2)s1)C1CCCO1 (stereo not drawn),31,-6
COc1ccc(-c2cc(C(F)(F)F)n3nc(C(=O)N(C)Cc4ccccc4)cc3n2)cc1OC,40*,140*
COc1ccc(-c2c(C(F)(F)F)nn(C)c2NC(=O)CSCC(=O)O)cc1,84,12
Cn1c(SCCOc2ccccc2F)nc2ccccc2c1=O,52,0
O=C(/C=C/c1ccc([N+](=O)[O-])cc1)c1cccnc1,31,-9
CCOc1ccccc1CN1CCN(Cc2csc(C(C)=O)c2)CC1CCO (stereo not drawn),41,9
CCOC(=O)c1c(C)c(C(=O)NC2CCCCC2)c(C)n1CC,55,3
C=CCOc1cccc(CNn2nnnc2N)c1,76,4
CCN(C(=O)Nc1ccccc1)c1ccccc1,66,-28
Cc1ccsc1C(=O)OCC(=O)NCCC1=CCCCC1,79,-32
CC(C)CCN(C)C1CCN(S(=O)(=O)c2cccc(C(F)(F)F)c2)CC1,36,7
CC(=O)c1cccc(Nc2c([N+](=O)[O-])c(=O)oc3ccccc23)c1,79,-26
Cc1oc2cc(OC(C)C(=O)O)ccc2c(=O)c1Oc1ccccc1 (stereo not drawn),103,1

# Reformatted: entries from further up
# The line under a structure holds: Mtb RmlCD inh	Mtb RmlCD inh retest
Cc1ccc(Cl)c(NC(=O)CN2CCNC(=O)C2)c1Cl
  47	2
CN(C)S(=O)(=O)c1ccc(NC(=O)CSc2ncnc3ccccc23)cc1
  56	-8

# More structures follow:
SMILES,Mtb RmlCD inh,Mtb RmlCD inh retest
CCOP(=O)(OCC)Oc1cc(C)c(N(C)C)c(C)c1,68,8
COc1ccc(C2(c3ccc(OC(C)=O)cc3OC(C)=O)CC(c3ccccc3)NC(=S)N2)cc1 (stereo not drawn),32,-3
COc1cc(/C=N/NC(=O)C(C)Nc2n[nH]c(=O)[nH]c2=O)cc(OC)c1O (stereo not drawn),58,8
O=C(CSc1ccc([N+](=O)[O-])cc1)Nc1cccc(S(=O)(=O)Nc2ccccc2F)c1,37,-20
CC(Oc1ccc(Cl)cc1Cl)C(=O)Nc1ccc(O)cc1 (stereo not drawn),40,8
CCOP(=O)(OCC)c1cc(CC)ccc1O,31,-1
COc1ccc(C2CC(=O)C=C(NNS(=O)(=O)c3ccc(C)cc3)C2)cc1 (stereo not drawn),36,-1
O=C(N/N=C/c1ccc2ncccc2c1)c1ccco1,39,-18
O=C(Oc1oc(-c2ccco2)nc1C=Nc1ccc(Cl)cc1)c1ccco1,104,-16
CCC(=O)CC(c1ccccc1)c1c(O)c2ccccc2sc1=O (stereo not drawn),66,-6
O=C(O)Cc1sc(Nc2ccc(Cl)cc2)nc1-c1cccs1,57,18
Cc1ccccc1-n1c(C)nnc1SCC(=O)NNC(=O)c1ccccc1,47,-10
O=C(Nc1ccc(C(=O)N2CCOCC2)cc1)Nc1cccc2ccccc12,44,-10
CCOC(=O)C1(Cc2ccc(OC)cc2)CCN(C(=O)C2=CCCC2)CC1,57,-9
O=c1c2cc([N+](=O)[O-])ccc2nc(CN2CCN(c3ccccn3)CC2)n1-c1ccccc1F,48,10
COc1cc(N(C(=O)Cc2cccs2)C(C(=O)NC2CCCCC2)c2cccc(OC)c2OC)ccc1-n1cnnn1 (stereo not drawn),37,-6
O=C(Cc1nnc(NC(=O)Nc2ccc(F)cc2)s1)Nc1ccccc1,31,-4
COc1ccc(NC(=O)C(Cl)=C(Cl)Cl)cn1,31,62
Cn1ccc(NC(=O)Nc2ccc(Cl)cc2)n1,55,0
COc1ccc(-n2cnc3sc4c(c3c2=O)CCCC4)cc1,64,-6
Cc1cc(NS(=O)(=O)c2ccc(N3C(=O)C4C5C=CC(C5)C4C3=O)cc2)nc(C)n1 (stereo not drawn),42,-5
Cc1ccc(/C=N/NC(=O)Cn2cnc3ccccc32)o1,72,6
Cc1cccc(CSc2nc3c(c(=O)[nH]2)CCCC3)c1,33,-10
O=C(COC(=O)c1ccccn1)Nc1cccc2ccccc12,42,-5
Cc1c(C(=O)C(=O)NCCC2=CCCCC2)c2ccccc2n1C,32,0
CCCCn1ccnc1C,85,9
CC1(C)CC(=O)C=C(NNC(=O)c2ccc(N)cc2)C1,46,-12
CNC(=O)C(=O)N/N=C/c1ccccn1,65,-8
CC(C)NCC(O)COCCOc1ccc(C(C)(C)C)cc1 (stereo not drawn),58,-6
COc1cc(/C=C/C(=O)N2CCCC2)cc(OC)c1OC,35,12
COCCCNC(=O)Cn1c(=O)n(CC(=O)NCCc2ccc(OC)c(OC)c2)c(=O)c2sccc21,47,-7
CCCOc1ccc(/C=N/NC(=O)CSc2ccccn2)cc1OC,36,-14
COC(=O)Nc1ccc(S(=O)(=O)N2CCCC(C(=O)NC3CCS(=O)(=O)C3)C2)cc1 (stereo not drawn),45,4
CCOc1cccc(-c2cc(C(=O)N/N=C/c3ccc(OC)c(CN4CCOCC4)c3)c3ccccc3n2)c1,65,-17
CC(C)c1ccc(/C=C(\NC(=O)c2ccccc2)C(=O)NCCCN2CCOCC2)cc1,37,3
O=C(CN1CCCCCCC1)NC(=O)NC1CCCCC1,83,8

# 16 consecutive entries from above, for reference:
SMILES,Mtb RmlCD inh,Mtb RmlCD inh retest
Cc1cc(NS(=O)(=O)c2ccc(N3C(=O)C4C5C=CC(C5)C4C3=O)cc2)nc(C)n1 (stereo not drawn),42,-5
Cc1ccc(/C=N/NC(=O)Cn2cnc3ccccc32)o1,72,6
Cc1cccc(CSc2nc3c(c(=O)[nH]2)CCCC3)c1,33,-10
O=C(COC(=O)c1ccccn1)Nc1cccc2ccccc12,42,-5
Cc1c(C(=O)C(=O)NCCC2=CCCCC2)c2ccccc2n1C,32,0
CCCCn1ccnc1C,85,9
CC1(C)CC(=O)C=C(NNC(=O)c2ccc(N)cc2)C1,46,-12
CNC(=O)C(=O)N/N=C/c1ccccn1,65,-8
CC(C)NCC(O)COCCOc1ccc(C(C)(C)C)cc1 (stereo not drawn),58,-6
COc1cc(/C=C/C(=O)N2CCCC2)cc(OC)c1OC,35,12
COCCCNC(=O)Cn1c(=O)n(CC(=O)NCCc2ccc(OC)c(OC)c2)c(=O)c2sccc21,47,-7
CCCOc1ccc(/C=N/NC(=O)CSc2ccccn2)cc1OC,36,-14
COC(=O)Nc1ccc(S(=O)(=O)N2CCCC(C(=O)NC3CCS(=O)(=O)C3)C2)cc1 (stereo not drawn),45,4
CCOc1cccc(-c2cc(C(=O)N/N=C/c3ccc(OC)c(CN4CCOCC4)c3)c3ccccc3n2)c1,65,-17
CC(C)c1ccc(/C=C(\NC(=O)c2ccccc2)C(=O)NCCCN2CCOCC2)cc1,37,3
O=C(CN1CCCCCCC1)NC(=O)NC1CCCCC1,83,8

# (listing goes on)
SMILES,Mtb RmlCD inh,Mtb RmlCD inh retest
NC(N)=N/N=C/c1ccc(Cl)c(Cl)c1,65,-24
O=C(Nc1ccccc1)Nc1ccccn1,64,-13
COC(=O)c1ccccc1SC(CC(=O)c1ccccc1)c1ccc(F)cc1 (stereo not drawn),42,13
CCc1ccc(NC(=S)N(CCCN2CCOCC2)Cc2ccco2)cc1,52,3
CCSc1nc2ccccc2c(=O)n1CCc1ccc(OC)c(OC)c1,44,-7
COc1ccc(-c2[nH]ncc2CNCc2cc(C)n(C)n2)c(F)c1,96,-5
Cc1ccccc1C(=O)NNC(=O)Nc1ccccc1,47,1
Cc1ccc(C)n1CCN1CCN(S(=O)(=O)c2ccc(F)cc2F)CC1,62,-7
NC(=S)N/N=C/c1ccccc1OCCSc1ccc(Cl)cc1,33,14
O=c1/c(=C/c2cccc3ccccc23)sc2ncnn12,36,20
COc1ccc(N2CCN(C(=S)NC(C)c3ccccc3)CC2)cc1 (stereo not drawn),51,8
CC(C)(C)NC(=O)COC(=O)/C=C/c1ccc(F)cc1,61,3
COc1ccc(OC)c(-c2nnc(-c3ccc(C)o3)o2)c1,33,25
Cc1cc(N2CCOCC2)n2ncc(-c3ccc(Cl)cc3)c2n1,83,-11
CC(C(=O)NN=C(c1ccccc1)c1ccccc1)N1CCCC1 (stereo not drawn),43,-4
CN1CCN(c2ccc(S(=O)(=O)N3CCCCC3)cc2NC(=O)Cc2ccc(Cl)cc2)CC1,54,-17
COC(=O)C1C(=O)NCC1c1ccccc1 (stereo not drawn),36,-4
Cc1cccc(NC2=C(Cl)C(=O)OC2NC(=O)c2ccccc2)c1 (stereo not drawn),40,-6
CC(C)(C)OC(=O)N1CCC[C@H]1c1nnc(SCC(=O)Nc2ccc(Br)cc2)o1,76,10
CSCC[C@H](NC(=O)Nc1ccc(S(N)(=O)=O)cc1)C(=O)O,41,-5
CCOC(=O)CC(=O)Nc1ccn[nH]1,49,8
COc1ccc(N=Cc2c(O)[nH]c3ccccc23)cc1OC,41,19
COc1ccnc(CSC(N)=Nc2cccc(C(F)(F)F)c2)c1,31,2
CCc1ccc(NC(=S)N(Cc2ccccc2)Cc2ccccn2)cc1,40,-3
CCOc1ccc(C(=O)NC(=S)Nc2ccc(NC(=O)c3ccco3)cc2)cc1[N+](=O)[O-],39,-3
CC(NC(=O)CNC(=O)C(Cc1ccccc1)NC(=O)OCc1ccccc1)C(N)=O (stereo not drawn),45,-2
CCOc1ccccc1CN1CCC(CO)(CCOc2ccccc2)CC1,47,-12
CNC(=S)N/N=C(\C)c1cccc([N+](=O)[O-])c1,43,-4
CCn1cc(C(=O)Nc2ccc(NC(=O)c3ccco3)cc2)c(=O)c2ccc(C)nc21,31,-2
Cc1ccc(C)c(OCC(=O)Nc2ccc(N3CCOCC3)cc2)c1,44,4
CC(NC(=O)Nc1ccc(F)cc1)C(c1cccs1)N1CCCC1 (stereo not drawn),42,-27

# These rows are one share of the data, so the mix of outcomes need not match the whole.
